Lassa entry inh: qHTS for Inhibitors of binding or entry into cells for Lassa Virus. Lassa virus pseudotype entry inhibition, cell reporter; control for the full effect not named in the record. Potency, µM (titrated, usually from 37.9 µM), inactives show at the top dose activity change, negative = inhibition, most hits filed as inhibitors. 300,000 compounds, 1.2% hits. AID 540256, 2011; active means well fitted inhibition curve with a large enough effect; inconclusive means small, poorly fitted or top-dose-only effect, or effect the other way; inactive means flat fitted curve, though single readings scatter; tested in HEK293 cells; also: % is scaled to controls: 0 for no effect and ±100 for the full control effect; nearly all actives have a fitted effect of over 50% in size; luciferase read-out
Cruzain inh noDet: qHTS Assay for Promiscuous and Specific Inhibitors of Cruzain (without detergent); AID 1476, 2009; purified cruzain, Z-FR-AMC fluorescence, no detergent; Potency, µM, for inactives: max response, negative = inhibition, hits mostly inhibitors; 200,000 compounds, 2.3% hits;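 also: plate controls were enzyme without inhibitor for no effect and buffer without enzyme for full effect; nearly all actives have a fitted effect of over 40% in size; top concentration of the series not given in the record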
Target sequence (P25779 123-467 limits assumed): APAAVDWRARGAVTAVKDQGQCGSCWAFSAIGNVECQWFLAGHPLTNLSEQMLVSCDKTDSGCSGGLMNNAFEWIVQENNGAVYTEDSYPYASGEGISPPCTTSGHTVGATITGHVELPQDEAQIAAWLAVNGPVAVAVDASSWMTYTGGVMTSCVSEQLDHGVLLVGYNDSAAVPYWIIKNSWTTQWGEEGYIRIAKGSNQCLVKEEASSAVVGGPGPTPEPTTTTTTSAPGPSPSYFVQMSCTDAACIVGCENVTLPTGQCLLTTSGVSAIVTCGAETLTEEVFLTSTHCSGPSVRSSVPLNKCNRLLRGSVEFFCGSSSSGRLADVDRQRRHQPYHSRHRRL
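Purified cruzain at 1.5 nM, pre-incubated 15 min with compound at room temperature in 100 mM sodium acetate pH 5.5, 5 mM DTT, 0.00005% Triton X-100. Reaction started with 2 uM Z-FR-AMC; AMC fluorescence increase over 60 s gives rate.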
Cruzain inh Det: qHTS Assay for Promiscuous and Specific Inhibitors of Cruzain (with detergent). purified cruzain, Z-FR-AMC fluorescence, 0.01% Triton. Potency, µM, for the others: max response, negative = inhibition, most hits filed as inhibitors. 200,000 compounds, 0.43% hits. AID 1478, 2009;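 also: plate controls were neutral wells for no effect and buffer without enzyme for full effect; nearly all actives have a fitted effect of over 40% in size; top concentration of the series not given in the record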
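Sodium acetate buffer (100 mM, pH 5.5) containing 5 mM DTT and 0.01% Triton X-100 hosted 1.5 nM cruzain and test compound for 15 min at room temperature. Cleavage of 2 uM Z-FR-AMC was then tracked by fluorescence.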
NS1 inh: qHTS Assay for Inhibitors of Influenza NS1 Protein Function; S. cerevisiae slowed by influenza A NS1, growth recovery by OD600; Potency, µM (titrated, usually from 46.1 µM), without a hit: at the top dose activity, positive = more growth; 270,000 compounds, 0.4% hits; active means well fitted rising curve with a large enough effect; inconclusive means small, poorly fitted or top-dose-only effect; inactive means no such curve, though single readings can be large or run the other way; also: nearly all actives have a fitted effect of over 50% in size
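Growth recovery, yeast-based: influenza A NS1 expressed in S. cerevisiae causes slow growth, and suppressors are detected by OD600. The parent strain without NS1 is used as positive control.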
RE007 growth inh: qHTS Assay for Inhibitors of the HIV-1 protein Vpr | S. pombe RE007 Vpr strain, BacTiter-Glo ATP luminescence, 24 h; control for the full effect not named in the record | Potency, µM (top dose mostly 92.2 µM), inactives show top-dose activity change, negative = less growth | 360,000 compounds, 0.21% hits | AID 651644, 2012; active = well fitted falling curve with a large enough effect; inconclusive = small, poorly fitted or top-dose-only effect; inactive = no such curve, though single readings can be large or run the other way;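 also: % is scaled to controls: 0 for no effect and ±100 for the full control effect; nearly all actives have a fitted effect of over 50% in size; the assay follows cell death caused by Vpr and the record does not say whether a fall means rescue or toxicity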
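Fission yeast RE007 carrying one integrated HIV-1 vpr copy, seeded at OD 0.01 in PMG+AL medium with 23 nL pinned compound. Grown 24 h at 30 degrees; viability read by BacTiter-Glo luminescence after 5 min.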
2A StopGo: High Throughput Screening for Foot and Mouth Disease Virus Antivirals | Potency, µM (series often up to 57.9 µM), for the others: at the top dose signal change, negative = less light | human cells with a luciferase reporter of 2A StopGo recoding; control for the full effect not named in the record | 410,000 compounds, 1.2% hits; active = well fitted falling curve with a large enough effect; inconclusive = small, poorly fitted or top-dose-only effect; inactive = no such curve, though single readings can be large or run the other way; tested in HEK293T cells; also: % is scaled to controls: 0 for no effect and ±100 for the full control effect; nearly all actives have a fitted effect of over 45% in size; luciferase light after 4 h
SARS PLpro yeast: qHTS of Yeast-based Assay for SARS-CoV PLP. Potency, µM (series often up to 32.9 µM), without a hit: at the top dose activity, positive = growth rescue. S. cerevisiae expressing SARS-CoV PLpro, growth rescue; control for the full effect not named in the record. 330,000 compounds, 0.19% hits; active means well fitted rising curve with a large enough effect; inconclusive means small, poorly fitted or top-dose-only effect; inactive means no such curve, though single readings can be large or run the other way; also: 0% is about no effect; nearly all actives have a fitted effect of over 55% in size; growth read by luminescence after 48 h
MARV entry inh: qHTS for inhibitors of binding or entry into cells for Marburg Virus; Marburg virus pseudotyped entry inhibition, cell reporter; control for the full effect not named in the record; about a third of the inactives were read at about 46 µM; Potency, µM (series often up to 37.8 µM), for the others: at the top dose activity change, negative = inhibition, hits mostly inhibitors; 300,000 compounds, 1.8% hits; AID 540276, 2011; active = well fitted inhibition curve with a large enough effect; inconclusive = small, poorly fitted or top-dose-only effect, or effect the other way; inactive = flat fitted curve, though single readings scatter; tested in HEK293 cells; about a fifth of its hits are not listed in these tables; also: % is scaled to controls: 0 for no effect and ±100 for the full control effect; luciferase read-out
An asterisk follows results filed as active; ? = inconclusive; · = not tested or not shown; [ ] = another dose, or the depositor's remark. Unless noted, calls follow the shape of the dose curve; as a rule, active = well fitted curve in the direction sought with a large enough effect; inconclusive = small, poorly fitted or top-dose-only effect, or another doubt; inactive = no such curve, though single readings can be large; an effect the other way counts as inactive or inconclusive. Potency is read from the fitted curve at half-maximal effect.

SMILES | Lassa entry inh | Cruzain inh noDet | Cruzain inh Det | NS1 inh | RE007 growth inh | 2A StopGo | SARS PLpro yeast | MARV entry inh
Cc1cn(C)c(CC(=O)NCc2cccc(Cl)c2)c1C(=O)O | 13%[46.1 µM] | -10% | 0.5% | · | · | -4% | · | ·
CCOc1ccc(OCCNC2CCCC2)cc1 | -14% | 0% | 5.3% | 9% | 9% | -13% | -5% | -1%
Cc1ccccc1C(=O)N1CCC(C(=O)N2CCN(Cc3ccc4c(c3)OCO4)CC2)CC1 | 11% | · | · | · | 8% | ? | 13% | -16%
Cc1nonc1C1CCCN1C(=O)c1cc(COc2ccc(F)cc2Cl)on1 (stereo not drawn) | · | · | · | 2% | 14% | 0% | -2% | ·
CCc1nnc(NC(=O)c2oc3ccccc3c2COC(C)C)s1 | -6% | · | · | · | -20% | 5% | -1% | -8%
COCCNC(=O)CS(=O)Cc1nc(-c2ccc(OC)cc2)oc1C (stereo not drawn) | · | 8% | -4.3% | 1% | 8% | 7% | 14% | ·
O=C(COc1ccc(Cl)cc1)NC1CCSC1=O (stereo not drawn) | 6% | 1% | 0.4% | 0% | -16% | 12% | 2% | 25%
O=C(Cn1c(=O)n(Cc2nc(-c3ccccc3)no2)c(=O)c2cc3c(cc21)OCO3)Nc1ccccc1 | -15%[46.1 µM] | ? | -4.3% | · | · | 0% | · | ·
COc1ccc(NC(=O)CN2CCN(CC#N)CC2)cc1 | 18% | · | · | 8% | 1% | 0% | -1% | -4%
O=C(O)[C@@H](O)c1ccccc1 | · | · | · | -4% | 10%[18.4 µM] | -11% | 0% | ·
O=C(Nc1ccccc1Cl)OC1CN2CCC1CC2 (stereo not drawn) | 5% | · | · | 3% | -10% | 14% | -1% | ?
COCc1ccc(C(=O)N2CCC(CCC(=O)Nc3cccc(C)c3)CC2)s1 | · | · | · | 6% | -11% | -13% | -6% | ·
CCCn1nnnc1SCC(=O)NNC(=O)c1ccco1 | · | · | · | 5% | 16% | -6% | 2% | ·
CCc1ccc(OC(C)C(=O)Nc2ccc(S(=O)(=O)Nc3nccs3)cc2)cc1 (stereo not drawn) | ? | · | · | ? | -3% | 24% | -1% | -2%[46.1 µM]
Cc1ccc(SCC(=O)Nc2ccc(S(N)(=O)=O)cc2)cc1 | -2% | · | · | · | -6% | 9% | 1% | 30%[46.1 µM]
Cc1ccc2c(c1)c1c(n2CC(O)CN2C(=O)CNC2=O)C(=O)CCC1 (stereo not drawn) | · | 2% | -1.0% | -1% | -3% | -7% | 10% | ·
CN1CCN(c2ccccc2NC(=O)c2ccc(-c3ccccc3[N+](=O)[O-])o2)CC1 | -18% | · | · | -4% | 1% | 0% | 1% | ?
O=C1CC(C(=O)Nc2ccccc2)N=C(N2CCOCC2)N1 (stereo not drawn) | -5% | 10% | 2.0% | 0% | -16% | -11% | 1% | ?
Cc1cc(C)nc(NC=C2C(=O)OC(C)(C)OC2=O)n1 | · | · | · | 2% | -10% | 7% | 1% | ·
CC(C)C[C@H](N)c1nnc(S(=O)(=O)Cc2ccc(F)cc2)o1 | ? | 13µM* | 13µM* | -63% | -28% | 22µM* | -17% | ?
Cc1cc(N2CCN(Cc3ccc4c(c3)OCO4)CC2)n2ncnc2n1 | -11% | 12% | -3.1% | -2% | 3% | -21% | 1% | 7%
COc1ccc(-c2ccc(C(c3c(C)[nH][nH]c3=O)c3c(C)[nH][nH]c3=O)o2)c([N+](=O)[O-])c1 | -29%[46.1 µM] | · | · | -1% | -9% | · | -1% | ?
COc1cccc(NC(=O)COC(=O)c2ccccc2C(=O)N2CCN(c3ccccc3)CC2)c1 | ? | · | · | · | -2% | 18µM* | 4% | ?
CCOCCCNC(=O)c1c[nH]c2cc(C)ccc2c1=O | -4% | 1% | -1.3% | -6% | -7% | 33%[activator] | 4% | ?
Cc1ccc(S(=O)(=O)c2nc(-c3cccc(C)c3)oc2N2CCN(c3ccccc3)CC2)cc1 | ? | -4% | -2.1% | · | · | 0% | · | 18%[46.1 µM]

A section from the list above:
SMILES | Lassa entry inh | Cruzain inh noDet | Cruzain inh Det | NS1 inh | RE007 growth inh | 2A StopGo | SARS PLpro yeast | MARV entry inh
O=C(Cn1c(=O)n(Cc2nc(-c3ccccc3)no2)c(=O)c2cc3c(cc21)OCO3)Nc1ccccc1 | -15%[46.1 µM] | ? | -4.3% | · | · | 0% | · | ·
COc1ccc(NC(=O)CN2CCN(CC#N)CC2)cc1 | 18% | · | · | 8% | 1% | 0% | -1% | -4%
O=C(O)[C@@H](O)c1ccccc1 | · | · | · | -4% | 10%[18.4 µM] | -11% | 0% | ·
O=C(Nc1ccccc1Cl)OC1CN2CCC1CC2 (stereo not drawn) | 5% | · | · | 3% | -10% | 14% | -1% | ?
COCc1ccc(C(=O)N2CCC(CCC(=O)Nc3cccc(C)c3)CC2)s1 | · | · | · | 6% | -11% | -13% | -6% | ·

The list goes on:
SMILES | Lassa entry inh | Cruzain inh noDet | Cruzain inh Det | NS1 inh | RE007 growth inh | 2A StopGo | SARS PLpro yeast | MARV entry inh
COC(=O)Cn1ncc2c(C)n(Cc3ccccc3)c(C)c2c1=O | · | -7% | -2.8% | -29% | 3% | 14% | 1% | ·
CCOc1ccc(N(CC(=O)Nc2c(C)n(C)n(-c3ccccc3)c2=O)S(=O)(=O)c2ccc(F)cc2)cc1 | · | · | · | 12% | 5% | 1% | -3% | ·
COc1ccc(CNC(=O)c2ccc(CS(=O)(=O)c3ccccc3C)o2)cc1 | · | · | · | -11% | 11% | -24% | -3% | ·
O=C(O)CC1(CC(=O)Nc2ccc3c(c2)C(=O)OC3)CCCCC1 | · | · | · | 5% | 4% | -5% | 1% | ·
Cc1ccccc1NC(=O)COC(=O)c1ccc(S(=O)(=O)N2CCCCCC2)cc1 | -3% | · | · | · | 3% | -12% | -2% | 30%
COc1ccc(NC(=O)CSCC(=O)NCCc2ccccn2)cc1 | 25% | · | · | -1% | 3% | 15% | 2% | 19%
CN(CC(=O)NC(=O)NCc1ccccc1)Cc1cccc(Cl)c1Cl | ? | -2% | -6.2% | -41% | 1% | 9% | -34% | 2%
Cc1ccc(-c2noc(CCCC(=O)NCc3ccco3)n2)cc1 | 0%[46.1 µM] | -10% | -2.3% | · | · | -19% | · | -21%[46.1 µM]
O=S(=O)(NCc1cn2ccsc2n1)c1ccc(Oc2ccccc2)cc1 | -29% | -26% | 5.3% | -4% | 0% | ? | 3% | ?
COc1ccccc1N1CCN(C(=O)CCn2nc(C)c(S(=O)(=O)N3CCCC3)c2C)CC1 | 15%[46.1 µM] | ? | -1.3% | · | · | -23% | · | ·
COc1ccc(CCN(C)C(=O)COc2cccc(-n3cnnn3)c2)cc1OC | 6%[46.1 µM] | · | · | · | 35% | 0% | 6% | -3%[46.1 µM]
O=C(COC(=O)/C=C/c1ccc(F)cc1)Nc1ccc(Cl)cn1 | -8% | · | · | 8% | -2% | -8% | 2% | 5%[46.1 µM]
NC(=O)[C@@H]1CCCNc2c(I)cc([N+](=O)[O-])cc2C(=O)N[C@@H](CO)C(=O)NCC(=O)N1 | -5% | -6% | -4.1% | 9% | 4% | 0% | -9% | -8%
Cc1ccccc1NC(=O)NCc1ccc2c(c1)OCO2 | 7% | · | · | -5% | -4% | 11% | 0% | 21%
Cc1nc(CN2CCN(C(=O)c3ccc(Br)cc3)CC2)cs1 | 22% | -12% | -0.9% | 8% | -2% | ? | 2% | 17%
Cc1ccc(S(=O)(=O)NNC2=NCCCCC2)cc1 | 1% | · | · | 1% | -1% | -1% | 0% | ?
OCCSc1nc(-c2cccnc2)nc2ccccc12 | -5% | 1% | -2.0% | -49% | 4% | 0% | 5% | ?
O=C(NC1CCNCC1)C1CC1 | · | · | · | 3% | 7% | -5% | 2% | ·
CC(=O)Oc1cccc(-c2nc3ccccc3c(=O)o2)c1 | · | · | · | 4% | -7% | -17% | 3% | ·
CCn1cc(C(=O)O)c(=O)c2cc(F)c(N3CCN(C(=S)NC(=O)c4ccccc4)CC3)cc21 | 7% | · | · | 6% | -13% | 1% | -2% | -7%[46.1 µM]
Cc1ccc2c(c1)-c1c(cnn1CC(=O)O)CO2 | 7% | -3% | 4.9% | 7% | -6% | -7% | 1% | 2%
C[C@H](NC(=O)C1CC(=O)N(c2ccc3c(c2)OCO3)C1)C(=O)NC1CCCC1 (stereo partly drawn) | -1%[46.1 µM] | · | · | 1% | -1% | 1% | -1% | -2%[46.1 µM]
Cc1c(C(=O)Nc2c(C)n(C)n(-c3ccccc3)c2=O)oc2ccccc12 | -3% | -7% | 6.0% | 4% | 37% | -8% | 7% | 19%
CCc1ccc(NC(=O)c2cccc(C(=O)Nc3ccc(CC)cc3)n2)cc1 | -16% | · | · | -4% | 5% | -3% | 4% | -17%
Cc1ccc2[nH]c3c(c2c1)CCCC3=O | 14% | -8% | 1.7% | -18% | -15% | 33%[activator] | -6% | -18%[46.1 µM]
Cc1cc(C)c(NC(=O)c2cc(S(=O)(=O)N3CCCC3)cn2C)c(C)c1 | -14%[46.1 µM] | 12% | 0.9% | · | · | 2% | · | ·
O=C(c1ccccc1)c1nccc2ccccc12 | 2% | -19% | -0.1% | 13% | 0% | -9% | 4% | ?
CCN1CCN(CCCNC(=O)CCCn2nc(C)c3sc4ccccc4c3c2=O)CC1 | · | · | · | -8% | -2% | -11% | ? | ·
O=C(/C=C/c1ccc([N+](=O)[O-])s1)N1CCN(c2ccccc2)CC1 | · | · | · | -4% | -18% | -24% | 1% | ·
CC(=O)Nc1ccc(N2N=C(C)C(N=Nc3ccccc3)C2=O)cc1 (stereo not drawn) | 22% | ? | -4.7% | -5% | 0% | 16% | 6% | 21%

Screening data (PubChem)
